Bioassay records from PubChem.
p53 HeLa: p53 stabilisation in HPV-positive human cells, imaging, p53-positive nuclei imaging, 24 h, 48 h (AID 1508601). p53-positive nuclei imaging, 48 h; stronger effect = higher value; some inactives read as strong as hits. p53-positive nuclei, normalised, % at 11 µM unless noted. 1% of 5,700 active;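 active = mean of two plates above 50% at 24 h or at 48 h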;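 note: HPV-positive HeLa cells with a fluorescent p53 stability reporter; 0% = vehicle and 100% = proteasome inhibitor control; doses worked out from stocks diluted about 900-fold with the highest of each compound shown; many of its hits are not listed in these tables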
p53 HeLa cells 24 h: recorded beside p53 HeLa, whose call it bears; nuclei count, normalised, %; measured here: cell number at 24 h;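 100% = vehicle wells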
p53 HeLa p53 24 h: further read-out of p53 HeLa, marked with its call; p53-positive nuclei, normalised, %; measured here: p53 positive nuclei at 24 h;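 0% = vehicle and 100% = positive control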
p53 HeLa cells 48 h: further read-out of p53 HeLa, marked with its call; nuclei count, normalised, %; measured here: cell number at 48 h;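 100% = vehicle wells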
Numbers without * were called inactive; [ ] = remark or other dose.

item	compound	p53 HeLa cells 48 h	p53 HeLa cells 24 h	p53 HeLa p53 24 h	p53 HeLa
1	CCCC(Nc1nc(-c2ccc(NC(=O)NCC)c(OC)c2)ncc1C)c1cccnc1 (configuration not stated)	28	36	3.7	2.8[3.7 µM]
2	COc1cccc2cc(-c3nc(C4CCC(C(=O)O)CC4)n4ncnc(N)c34)[nH]c12 (configuration not stated)	84	74	0.0	-0.3
3	CCCCNc1ccc(C(=O)OCCN(C)C)cc1	120	122	-0.5	-0.3[3.7 µM]
4	COc1cc2ncn(-c3cc(OCc4ccccc4C(F)(F)F)c(C(N)=O)s3)c2cc1OC	23	36	0.5	0.8
5	CCN1CC(C)n2c(c(O)c3c(=O)n(Cc4ccc(F)c(Cl)c4)nc(C(=O)NC)c32)C1=O (configuration not stated)	107	105	-0.3	-0.3[3.7 µM]
6	CCc1cc(Nc2nccc(-c3c(-c4ccc(OC)c(C(=O)Nc5c(F)cccc5F)c4)nc4ccccn34)n2)c(OC)cc1N1CCC(N2CCN(S(C)(=O)=O)CC2)CC1	100	95	-0.1	-0.3
7	Cc1cnc(-c2cc(N3CCN(C(=O)CCS(C)(=O)=O)CC3)ncc2Cl)c(C)c1	109	109	-0.2	-0.3[3.7 µM]
8	COc1ccc(C2CNC(=O)C2)cc1OC1CCCC1 (configuration not stated)	106	109	-0.2	0.0[3.7 µM]
9	CNC(=O)c1ccc(Nc2ncc(C(F)(F)F)c(NCc3nccnc3N(C)S(C)(=O)=O)n2)cc1	34	47	8.9	15
10	CCN(CC)CCOC(=O)c1ccc(N)cc1	97	97	-0.3	-0.1[3.7 µM]

Complete entries, looked up by structure. Order of screens: p53 HeLa cells 48 h, p53 HeLa cells 24 h, p53 HeLa p53 24 h, p53 HeLa
CCCCNc1ccc(C(=O)OCCN(C)C)cc1 in the list: 120, 122, -0.5, -0.3[3.7 µM]
COc1cccc2cc(-c3nc(C4CCC(C(=O)O)CC4)n4ncnc(N)c34)[nH]c12 (configuration not stated) in the list: 84, 74, 0.0, -0.3

(cont.)
item	compound	p53 HeLa cells 48 h	p53 HeLa cells 24 h	p53 HeLa p53 24 h	p53 HeLa
11	C[C@@]1(c2nc3c(C(N)=O)cccc3[nH]2)CCCN1	68	63	-0.1	0.0
12	C[C@]1(c2nc3c(C(N)=O)cccc3[nH]2)CCCN1	97	109	0.0	-0.7
13	O=C(CN1C(=O)C2(CCCC2)NCC1c1cc(F)cc(F)c1)Nc1ccc2c(c1)C[C@@]1(C2)C(=O)Nc2ncccc21 (some centres not stated)	105	105	0.0	-0.1
14	CC(C)NCC(C(=O)N1CCN(c2ncnc3c2C(C)CC3O)CC1)c1ccc(Cl)cc1 (configuration not stated)	117	104	-0.2	-0.1
15	CN1CCC(CNc2ccc3ncc(-c4cccc(OC(F)(F)F)c4)n3n2)CC1	33	47	0.8	0.8
16	COc1cc2ncnc(Nc3cccc(Cl)c3)c2cc1OC	108	100	0.0	0.1
17	Cc1cc2c(F)c(Oc3ncnn4cc(OCC(C)OC(=O)C(C)N)c(C)c34)ccc2[nH]1 (configuration not stated)	105	108	-0.6	-0.4[3.7 µM]
18	COc1cc(CCc2cc(NC(=O)c3ccc(N4CC(C)NC(C)C4)cc3)n[nH]2)cc(OC)c1 (configuration not stated)	50	65	-0.2	0.3
19	Cc1cc(C)c2c(c1)[C@@H](N(Cc1cc(C(F)(F)F)cc(C(F)(F)F)c1)c1nnn(C)n1)CCCN2CC1CCC(C(=O)O)CC1 (some centres not stated)	114	121	0.0	3.3[3.7 µM]
20	CC1Cc2ccccc2N1NC(=O)c1ccc(Cl)c(S(N)(=O)=O)c1 (configuration not stated)	109	108	-0.1	-0.2

(listing goes on)
item	compound	p53 HeLa cells 48 h	p53 HeLa cells 24 h	p53 HeLa p53 24 h	p53 HeLa
21	CC1COC(Nc2ccc3ncnc(Nc4ccc(OCc5nccs5)c(Cl)c4)c3c2)=N1 (configuration not stated)	105	109	-0.3	0.0[3.7 µM]
22	COc1cc2c(cc1-c1c(C)noc1C)ncc1[nH]c(=O)n(C(C)c3ccccn3)c12 (configuration not stated)	118	119	12	2.9
23	CCC(=O)N1CCN(c2ccc(-n3c(=O)ccc4cnc5ccc(-c6cnc7ccccc7c6)cc5c43)cc2C(F)(F)F)CC1	22	44	0.8	12
24	Cc1cn(C2CC(O)C(CO)O2)c(=O)[nH]c1=O (configuration not stated)	99	98	-0.1	0.1
25	CC(C)(O)CC(=O)NCCn1ccc2ncnc(Nc3ccc(Oc4cccc(C(F)(F)F)c4)c(Cl)c3)c21	112	110	0.1	-0.1
26	CN(C)CCCC1(c2ccc(F)cc2)OCc2cc(C#N)ccc21 (configuration not stated)	113	119	-0.2	0.0[3.7 µM]
27	c1ccc(Nc2nc3c(s2)CCCc2[nH]ncc2-3)nc1	54	81	1.4	34
28	CCOc1cc2ncc(C#N)c(Nc3ccc(OCc4ccccn4)c(Cl)c3)c2cc1NC(=O)C=CCN(C)C	109	101	0.0	-0.2
29	O=C(NCCCNc1nc(Nc2cccc(CN3CCOCC3)c2)ncc1C1CC1)C1CCC1	29	43	0.2	0.0
30	CCCC(NC(C)C(=O)N1C(C(=O)O)C[C@H]2CCCC[C@@H]21)C(=O)OCC (some centres not stated)	78	76	0.0	-0.1

Entries by screen from the entries so far.
Compounds 13–18 in p53 HeLa cells 48 h: 105, 117, 33, 108, 105, 50
Compounds 13–18 in p53 HeLa p53 24 h: 0.0, -0.2, 0.8, 0.0, -0.6, -0.2

The list goes on:
item	compound	p53 HeLa cells 48 h	p53 HeLa cells 24 h	p53 HeLa p53 24 h	p53 HeLa
31	NOCC(=O)O	108	105	0.2	0.2
32	CC(C)COc1ccc(CNC(=O)N(Cc2ccc(F)cc2)C2CCN(C)CC2)cc1	79	70	0.3	0.2
33	CC1(C)CNc2cc(NC(=O)c3cccnc3NCc3ccncc3)ccc21	107	112	-0.1	-0.1
34	Oc1ccc(C2CNCCc3c2cc(O)c(O)c3Cl)cc1 (configuration not stated)	104	105	0.2	0.0
35	CNC(=O)c1nn(C)c2c1C(C)(C)Cc1cnc(Nc3ccc(N4CCN(C)CC4)cc3)nc1-2	44	63	0.1	0.2[3.7 µM]
36	Cc1cccc(-c2nn3c(c2-c2ccnc4ccc(C(N)=O)cc24)CCC3)n1	105	104	-0.3	-0.1[3.7 µM]
37	CS(=O)(=O)c1ccc(-c2cnc(N)c(C(=O)Nc3ccccc3)n2)cc1	58	95	-0.1	1.5
38	CC(C)(Cc1nc(-c2ccc(O)cn2)no1)C(=O)NC1=C(C(=O)O)CCCC1	102	99	-0.1	-0.1
39	Cc1ccc(N(CC2=NCCN2)c2cccc(O)c2)cc1	98	87	-0.3	-0.1[3.7 µM]
40	CC(C)c1cc(-c2n[nH]c(=O)n2-c2ccc3c(ccn3C)c2)c(O)cc1O	35	48	-0.1	0.0

From entry 25 up to 40, copied from above:
item	compound	p53 HeLa cells 48 h	p53 HeLa cells 24 h	p53 HeLa p53 24 h	p53 HeLa
25	CC(C)(O)CC(=O)NCCn1ccc2ncnc(Nc3ccc(Oc4cccc(C(F)(F)F)c4)c(Cl)c3)c21	112	110	0.1	-0.1
26	CN(C)CCCC1(c2ccc(F)cc2)OCc2cc(C#N)ccc21 (configuration not stated)	113	119	-0.2	0.0[3.7 µM]
27	c1ccc(Nc2nc3c(s2)CCCc2[nH]ncc2-3)nc1	54	81	1.4	34
28	CCOc1cc2ncc(C#N)c(Nc3ccc(OCc4ccccn4)c(Cl)c3)c2cc1NC(=O)C=CCN(C)C	109	101	0.0	-0.2
29	O=C(NCCCNc1nc(Nc2cccc(CN3CCOCC3)c2)ncc1C1CC1)C1CCC1	29	43	0.2	0.0
30	CCCC(NC(C)C(=O)N1C(C(=O)O)C[C@H]2CCCC[C@@H]21)C(=O)OCC (some centres not stated)	78	76	0.0	-0.1
31	NOCC(=O)O	108	105	0.2	0.2
32	CC(C)COc1ccc(CNC(=O)N(Cc2ccc(F)cc2)C2CCN(C)CC2)cc1	79	70	0.3	0.2
33	CC1(C)CNc2cc(NC(=O)c3cccnc3NCc3ccncc3)ccc21	107	112	-0.1	-0.1
34	Oc1ccc(C2CNCCc3c2cc(O)c(O)c3Cl)cc1 (configuration not stated)	104	105	0.2	0.0
35	CNC(=O)c1nn(C)c2c1C(C)(C)Cc1cnc(Nc3ccc(N4CCN(C)CC4)cc3)nc1-2	44	63	0.1	0.2[3.7 µM]
36	Cc1cccc(-c2nn3c(c2-c2ccnc4ccc(C(N)=O)cc24)CCC3)n1	105	104	-0.3	-0.1[3.7 µM]
37	CS(=O)(=O)c1ccc(-c2cnc(N)c(C(=O)Nc3ccccc3)n2)cc1	58	95	-0.1	1.5
38	CC(C)(Cc1nc(-c2ccc(O)cn2)no1)C(=O)NC1=C(C(=O)O)CCCC1	102	99	-0.1	-0.1
39	Cc1ccc(N(CC2=NCCN2)c2cccc(O)c2)cc1	98	87	-0.3	-0.1[3.7 µM]
40	CC(C)c1cc(-c2n[nH]c(=O)n2-c2ccc3c(ccn3C)c2)c(O)cc1O	35	48	-0.1	0.0

Further structures.
item	compound	p53 HeLa cells 48 h	p53 HeLa cells 24 h	p53 HeLa p53 24 h	p53 HeLa
41	C[N+]1(C)CCC(=C(c2ccccc2)c2ccccc2)CC1	104	114	0.0	0.1[3.7 µM]
42	COc1cc2c(cc1OC)-c1[nH]nc(Nc3cccc(F)c3)c1C2	30	43	2.2	3.4
43	CC(C(=O)O)c1ccc2c(c1)CC(=O)c1ccccc1S2 (configuration not stated)	105	97	-0.1	-0.3
44	Cc1ccc(=O)n(-c2ccccc2)c1	92	93	-0.5	-0.3[3.7 µM]
45	O=c1oc2c(O)c(O)cc3c(=O)oc4c(O)c(O)cc1c4c23	111	106	0.0	0.0
46	C#Cc1cccc(Nc2ncnc3cc(OC)c(OCCCCCCC(=O)NO)cc23)c1	69	69	25	13[3.7 µM]
47	Cc1ccc(NC(=O)C2(c3ccc4c(c3)OC(F)(F)O4)CC2)nc1-c1cccc(C(=O)O)c1	105	105	-0.2	0.0[3.7 µM]
48	COc1ccc(-c2cc3nccn3c(Nc3ncccc3C(N)=O)n2)cc1OC	34	55	20	30
49	CCc1ccc(CCOc2ccc(CC3SC(=O)NC3=O)cc2)nc1 (configuration not stated)	116	122	-0.1	-0.1
50	CCCN1CCN(c2ccc(C(=O)NC3(C(=O)NCC#N)CCCCC3)cc2)CC1	113	112	0.0	-0.1

The results go on:
item	compound	p53 HeLa cells 48 h	p53 HeLa cells 24 h	p53 HeLa p53 24 h	p53 HeLa
51	COc1nccc(-c2c(-c3ccc(F)cc3)ncn2C2CCC(O)CC2)n1 (configuration not stated)	87	94	-0.1	-0.2
52	CN1CCN(c2ccc(OC(F)(F)F)c(Nc3ncc4c(n3)-c3c(c(C(N)=O)nn3CCO)CC4)c2)CC1	24	32	0.2	0.2
53	CN(C)CCC=C1c2ccccc2COc2ccc(CC(=O)O)cc21	99	105	-0.1	-0.1
54	CCc1cccc(CC)c1NC(=O)N1Cc2[nH]nc(NC(=O)c3ccc(N4CCN(C)CC4)cc3)c2C1	25	40	0.3	0.2[3.7 µM]
55	CC(C)(Cc1ccc2ccccc2c1)NCC(O)COc1cccc(Cl)c1C#N (configuration not stated)	103	107	0.0	0.0[3.7 µM]
56	c1cc(-c2cnn3cc(-c4ccc(N5CCNCC5)cc4)cnc23)c2cccnc2c1	84	88	0.1	0.2[3.7 µM]
57	O=C(NC1CCOCC1)c1ccc(-c2cc(-c3cn[nH]c3-c3ccccn3)ccn2)cc1	94	94	-0.2	-0.1[3.7 µM]
58	CNC(=O)c1c(F)cccc1Nc1nc(Nc2cc3c(cc2OC)CCN3C(=O)CN(C)C)nc2[nH]ccc12	102	99	-0.2	-0.3[3.7 µM]

Not all compounds are listed; count on the stated rates, not on these rows.
